Assay outcomes as filed in PubChem.
Mtb hypoxia rep: reduces hypoxia-regulated biosensor signal in M. tuberculosis; M. tuberculosis hypoxia-regulated fluorescent reporter, fluorescence; fluorescence inhibition, % (no concentration beside the values); hit rate 0.1% among 300,000;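 active means 35 to 45% if threefold the growth effect, above 45% if 1.5-fold the growth effect; inactive means the rest, general growth blockers included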;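 further: wells of about 50 µL received 100 nL stock; 0% = vehicle wells and 100% = reference inhibitor wells; whole bacteria with a GFP reporter of the hypoxia response; strong numbers were not always called active; many hits fall short of the cut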
Bead autofluor: counter-screen for toxin protease inhibitors: compound fluorescence | hit rate 3.1% among 360,000 | fluorescence intensity (no concentration beside the values) | AID 624483 | compound autofluorescence counterscreen, microsphere flow cytometry; stronger effect = higher value;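 active means at least 3 SD above the mean of all compounds, about 16000 in these data; inconclusive means too few beads counted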;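 further: 100 nL of 1 mM stock went into each well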
RN4220 kill: S. aureus RN4220 growth inhibition. AID 1259311. hit rate 0.33% among 330,000. OD600, 16 h. inhibition, % (test concentration not listed);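 active means z-score of -3 or lower and OD600 up to 0.18 on both plates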;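 further: plate controls were untreated cells for no effect and reference antibiotic for full effect; stock transfer was 100 nL into about 80 µL; one replicate is shown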
BJeLR lethal: kills HRASV12-expressing BJeLR cells; hit rate 0.17% among 300,000; inhibition, % (concentration not given with the values); BJeLR (HRASV12) viability, CellTiter-Glo ATP luminescence, 48 h; reference of the scale not given here;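 active means replicate mean above 50%; inconclusive means above 50% but judged a plate artefact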;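 further: 50 nL library stock added to about 25 µL; numbers are from one replicate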
PrP 5UTR inh: inhibition of PrP 5' UTR reporter expression; cell-based PrP 5' UTR mRNA reporter, plate reader; inhibition, % (concentration not given with the values); hit rate 0.35% among 340,000; AID 488862;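 active means every replicate at 50% or more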;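 further: 0 = median of the neutral control wells; tested in H4 reporter cells; numbers are from one replicate; inactives centre near -14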
ugtP null kill: growth inhibition of S. aureus ugtP deletion strain. S. aureus RN4220 ugtP deletion, OD600 growth, 16 h; some inactives read as strong as hits. growth inhibition, % (test concentration not listed). hit rate 0.54% among 330,000. AID 1259309;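 active means z-score under -3 and OD600 up to 0.15 on both plates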;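 further: plate controls were untreated wells for no effect and antibiotic for full effect; wells of about 80 µL received 100 nL stock; the first replicate is given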
Mtb hypoxia rep growth: recorded beside Mtb hypoxia rep, whose call it bears; growth inhibition, %; measured here: M. tuberculosis growth (absorbance);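 0% = vehicle and 100% = reference antibiotic; read after six days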
Numbers without * were called inactive; ? = inconclusive; / = not tested or not shown.

Order of values: Mtb hypoxia rep	Mtb hypoxia rep growth	Bead autofluor	RN4220 kill	BJeLR lethal	PrP 5UTR inh	ugtP null kill
- CCc1c(C)c2c(C)nn(-c3ccccc3)c2[nH]c1=O
  0	6	3325	0.1	4	-19	9
- COc1ccc(C)cc1NS(=O)(=O)c1ccc(NC(=O)CN(c2cc([N+](=O)[O-])ccc2C)S(C)(=O)=O)cc1
  -1	2	7517	-7.5	109*	-3	-2
- CC(=O)c1cn(Cc2ccc(F)cc2)c2ccccc12
  1	-11	3064	2.2	-7	-5	1
- COc1cc(C=NNC(=O)CC2(C)OCCO2)cc(Br)c1O
  -4	5	/	0.8	/	/	5
- O=C(CSCc1ccc(F)cc1)NC1CCCC1
  4	6	5978	0.0	-6	-27	-4
- COc1cccc(C2=NOC(C(=O)Nc3cccc(C(C)=O)c3)C2)c1 (stereo unspecified)
  -7	8	19143*	-0.2	-8	-23	-5
- COc1cccc(N(C(=O)c2snc(C(N)=O)c2N)C(C(=O)NCC2CCCO2)c2ccc(F)cc2)c1 (stereo unspecified)
  13	-1	3916	3.4	-2	-9	0
- CCON=C(N)c1[nH]ncc1Br
  5	-6	/	2.8	/	/	15
- N=C1S/C(=C\c2ccccc2)C(=O)N1c1ccc(F)cc1
  7	-5	2521	1.5	5	-11	-4
- O=C(CSc1nnc(CN2CCOCC2)n1-c1ccc(Cl)cc1)Nc1ccc2c(c1)OCO2
  2	5	9521	4.0	-11	-1	9
- COc1cc(C=NNC(=O)c2cccnc2)cc2c1OCO2
  2	-16	/	-2.5	/	/	1
- Cn1c(=NC(=O)c2ccc3c(c2)OCCO3)sc2cc(S(C)(=O)=O)ccc21
  2	2	4415	1.7	-23	19	5
- COC(=O)C1=C(C)N(C)C(=S)NC1c1cc(OC)ccc1OC (stereo unspecified)
  -2	13	4359	3.3	9	0	5
- COc1ccc(CCN(C)C(=O)CNC(=O)c2ccc3c(c2)OCO3)cc1OC
  0	-6	4641	2.1	-3	-15	10
- O=C(CCCSc1nc2ccccc2[nH]1)NC1CCCCC1
  16	4	3209	5.0	-2	-27	-2
- O=C(Cc1cccs1)Nc1nnc(-c2ccc(F)cc2)s1
  /	/	4503	/	1	-27	/
- CCC1CCC(N2CCN(c3ccccc3F)CC2)CC1 (stereo unspecified)
  -7	-3	4248	0.9	9	-9	7
- CCN(CC)CCCNC(=O)CCC(=O)Nc1ccc2nc(N3CCCCC3)cc(C)c2c1
  3	2	4861	1.7	-3	-16	1
- CCS(=O)(=O)c1nc2ccccc2n1Cc1ccccc1Cl
  4	8	5412	-13	6	-13	1
- CCN(CC(=O)Nc1ccc(OC)cc1)C(=O)CSCC(=O)Nc1ccc(C)cc1
  -3	0	6164	-1.5	-10	-11	-3
- Cc1c(NC(=O)c2cc(-c3ccccc3O)on2)c(=O)n(-c2ccccc2)n1C
  /	/	5092	/	0	-18	/
- CCOC(=O)Cn1c2c(c(=N)c3c1CCC3)CCC2
  /	/	4930	-1.0	-8	3	5
- COc1ccc(NC(=O)N2CCC(n3cnc4ccccc43)CC2)cc1
  7	12	3615	5.2	-3	-25	8
- COc1ccccc1Nc1nc(N)nc(CSCCO)n1
  11	3	8623	3.0	1	-16	-2
- CC(=O)c1ccc(OCCCC(=O)Nc2cccc(S(=O)(=O)N3CCOCC3)c2)cc1
  12	8	3410	5.3	/	-16	9
- COc1ccc(CCNc2cn[nH]c(=O)c2Cl)cc1OC
  3	-8	4155	1.9	5	-20	3
- COc1cc(C(=O)OCC(=O)N(CC(C)C)C2CCS(=O)(=O)C2)ccc1OCC(C)C (stereo unspecified)
  4	7	5070	1.7	-12	-2	3
- Cc1c(C(=O)O)sc2ncnc(N3CCCCC3C)c12 (stereo unspecified)
  6	5	2862	4.2	9	-5	6
- COc1cccc(C(=O)Nc2ccc(-n3nncc3C(C)(C)C)cc2)c1
  4	7	3967	3.7	3	-30	1
- COc1ccc(C(=O)NCc2ccc(Cl)cc2)cc1S(=O)(=O)N1CCCC1
  -7	-5	4318	-5.8	/	5	-1
- Cc1cc(NS(=O)(=O)c2ccc(NC(=O)Cc3ccccc3)cc2)nc(C)n1
  9	1	3328	3.4	4	-22	14
- Cc1cc(NC(=O)CSc2ccc3nnc(-c4ccc(F)cc4)n3n2)no1
  -7	-4	9900	-0.6	2	-23	60
- Fc1cc(F)cc(NC(=S)NCCCN2CCOCC2)c1
  2	4	2198	3.2	5	-3	0
- CCOC(=O)Cc1nn(Cc2nc(-c3ccc(C)cc3)cs2)c(=O)c2ccccc12
  11	13	7026	-3.2	-6	1	4
- Cc1ccccc1NC(=O)Nc1ccccc1N1CCCCC1
  13	4	5692	14	-5	-20	-3
- CN=C1S/C(=C/c2cn(CC(=O)OC)c3ccccc23)C(=O)N1C
  -1	7	3769	0.7	3	0	-3
- Cc1ccc(-n2c(CNc3ccc(C)c(Cl)c3)n[nH]c2=S)cc1
  -1	-2	2492	11	-3	-10	-4
- O=P(C(=NO)Sc1ccccc1)(N1CCOCC1)N1CCOCC1
  4	1	/	2.6	/	/	5
- CCCCN(C)CCNC(=O)Cn1c(=O)sc2ccccc21
  /	/	6125	1.8	1	-30	-3
- COc1cccc(/C=N/NC(=O)CCCc2ccc(OC)c(C)c2)c1
  /	/	7591	/	-1	-32	/

Reformatted with bars between the fields: two of the compounds above.
SMILES | Mtb hypoxia rep | Mtb hypoxia rep growth | Bead autofluor | RN4220 kill | BJeLR lethal | PrP 5UTR inh | ugtP null kill
CN=C1S/C(=C/c2cn(CC(=O)OC)c3ccccc23)C(=O)N1C | -1 | 7 | 3769 | 0.7 | 3 | 0 | -3
Cc1ccc(-n2c(CNc3ccc(C)c(Cl)c3)n[nH]c2=S)cc1 | -1 | -2 | 2492 | 11 | -3 | -10 | -4

The list goes on:
Order of values: Mtb hypoxia rep	Mtb hypoxia rep growth	Bead autofluor	RN4220 kill	BJeLR lethal	PrP 5UTR inh	ugtP null kill
- O=C(c1cccc(C(=O)N2CCN(c3ccc(F)cc3)CC2)c1)N1CCN(c2ccc(F)cc2)CC1
  14	12	11408	1.7	-5	-20	3
- O=C(N/N=C/c1ccc(F)cc1)c1cccc(NC(=O)c2ccc(F)cc2)c1
  /	/	3161	/	0	4	/
- CCOC(=O)N/N=C/c1cn(CCCOc2ccc(C)cc2)c2ccccc12
  /	/	2054	/	3	-59	/
- O=C(NCC1CCCO1)C1CCN(S(=O)(=O)Cc2ccccc2)CC1 (stereo unspecified)
  /	/	2802	0.6	-2	-18	5
- COc1cccc(-c2nc(-c3ccccc3)no2)c1
  /	/	3565	-0.8	3	-53	7
- COc1ccc2cc(S(=O)(=O)N3CCN(C)CC3)ccc2c1
  /	/	3910	4.1	4	-9	1
- O=C(Nc1ccc(N2CCOCC2)c(S(=O)(=O)Nc2ccccc2Cl)c1)c1ccccc1
  17	34	3524	0.6	/	-11	-8
- O=C(NC1CCCCC1)N(Cc1ccc(F)cc1)Cc1nc2ccccc2c(=O)[nH]1
  /	/	2351	8.0	6	-9	13
- CCOC(=O)c1c(C)n(C)c2ccc(OC)c(NC(=O)CN3CCC4(CC3)OCCO4)c12
  0	4	9490	0.3	-4	-19	0
- CCn1nnnc1NCc1cccc(Cl)c1
  6	1	4578	-1.1	-11	-3	3
- COc1cccc(CN2CCNC(=O)C2CC(=O)NCCCn2ccnc2)c1 (stereo unspecified)
  10	-9	4447	1.1	0	-11	7
- COc1ccc(C(=O)NCCSc2ccc(C)cc2)cc1
  -3	1	10929	5.0	-2	-15	12
- O=C(NCC1CCCO1)c1ccc(CSCc2cccc(F)c2)o1 (stereo unspecified)
  -5	-9	4959	2.5	1	-16	2
- Cc1nc(SCC(=O)c2cccc([N+](=O)[O-])c2)n[nH]1
  /	/	2127	1.4	6	-6	3
- O=C(CSc1nc2ccccc2c(=O)n1Cc1ccccc1)NCc1ccco1
  -1	9	10801	1.0	1	/	-7
- COc1cccc(Nc2cc(N3CCOCC3)c3nonc3c2[N+](=O)[O-])c1
  /	/	4037	0.8	3	-3	0
- Cc1cccc(C)c1NC(=O)COC(=O)c1c(C)nn(-c2ccccc2)c1C
  -8	5	8710	2.7	/	-8	1
- Cc1nnc(NC(=O)c2ccccc2F)s1
  6	12	10577	2.5	16	-23	10
- COC(=O)c1sccc1NC(=O)Nc1ccc(C)cc1
  1	1	5971	3.8	/	-24	-1
- O=C(N/N=C/c1cc([N+](=O)[O-])ccc1O)Nc1ccccc1
  /	/	6700	/	5	1	/
- COc1ccc2cc3cc(C(=O)N4CCN(C5CCCCC5)CC4)oc3nc2c1
  -1	10	5799	1.0	0	-8	2
- CC1CCc2nn(CC(=O)NC3CCCC(C)C3C)cc2C1 (stereo unspecified)
  /	/	4500	-0.7	3	-22	6
- NC(=O)c1cc[n+](CC(=O)c2ccc(NC(=O)c3ccccc3)cc2)cc1
  9	6	2539	-0.1	0	-20	0
- COC(=O)[C@]1(S(=O)(=O)c2ccccc2)C[C@@H]2ON=C(c3ccc(OC)cc3)[C@@H]2C1
  /	/	2837	/	-9	-15	/
- CC(C)CC(NC(=O)c1ccco1)C(=O)Nc1ccc2c(c1)OCCO2 (stereo unspecified)
  /	/	4846	-4.2	-9	-98	-5
- CN1C(=O)C(O)(c2nnc(-c3ccccc3)o2)c2ccccc21 (stereo unspecified)
  14	19	4637	1.7	7	-8	0
- CC(C)CNC(=S)NNC(=O)c1csc2c1CCC(C)C2 (stereo unspecified)
  12	9	10073	2.5	4	/	1
- Cc1cc(C)cc(SCc2noc(C(=O)NC(C)C)c2C(=O)O)c1
  /	/	4243	/	6	-11	/
- COc1ccc(C(C)=NNC(=O)CCC(=O)Nc2ccc(Cl)cc2Cl)c(OC)c1
  -4	3	/	1.2	/	/	11
- CC(C)(C)C(=O)Nc1nnc(CSCc2ccccc2F)s1
  3	11	19760*	8.3	-8	-15	-6
- COc1ccc(CCNc2c3ccccc3nc3ccccc23)cc1OC
  1	6	?	-3.0	15	-5	93*
- CCC(=O)Nc1ccc(NC(=O)CSc2nnc(C(C)C)n2C)cc1
  /	/	3105	6.2	-1	-21	7
- CCN1C(=O)N(S(=O)(=O)C(F)(F)F)C(c2ccccc2)C(C(=O)OC)=C1C (stereo unspecified)
  9	6	/	7.0	/	/	6
- Cc1cc(-c2ccc(Br)cc2)n[nH]1
  -4	-3	3403	1.5	-12	-22	-5
- O=C(Nc1ccccc1)N1CCC(c2ccccc2)C1 (stereo unspecified)
  /	/	2634	-2.4	-5	-21	6
- COc1ccc(NC(=O)CN(C)C(=O)c2cc(-c3cccs3)nn2-c2ccccc2)cc1
  -8	6	?	0.1	0	-1	3
- CC(=O)Nc1ccc(S(=O)(=O)Nc2nc3ccccc3nc2Nc2ccc(N)cc2)cc1
  1	3	?	0.8	-7	6	13
- COc1cc(NC(=O)C2CC2)c(C(=O)O)cc1OC
  /	/	?	/	-5	-33	/
- Cc1ccc(C)c(S(=O)(=O)N2CCN(C(=O)c3ccc4ccccc4n3)CC2)c1
  -2	-5	5724	-1.8	/	-5	2
- O=C(COc1ccc(F)cc1)Nc1ccc(S(=O)(=O)Nc2ncccn2)cc1
  /	/	5422	/	0	-5	/
- CCc1noc(C)c1C(=O)N1CCCC(CCC(=O)NCc2cccc(OC)c2)C1 (stereo unspecified)
  10	7	4697	3.8	-9	-26	4
- O=C(NCCCN1CCN(c2cccc(Cl)c2)CC1)c1cccc(N2CCCC2=O)c1
  9	13	2775	6.9	-4	-12	-5
- CC(=O)c1c(O)c2ccccc2n(Cc2ccccc2)c1=O
  -9	3	4055	0.6	8	-3	-1
- O=C(NCC(=O)N(c1cccc(F)c1)C(C(=O)NC1CCCC1)c1ccco1)c1ccco1 (stereo unspecified)
  -7	-5	4827	2.8	8	-11	-5
- CN(Cc1ccccc1)C(=O)CN1C(=O)c2ccccc2C1=O
  7	5	3400	1.3	-13	-15	6
- O=C(COC(=O)c1cccs1)c1ccc2ccccc2c1
  5	4	3174	6.5	-2	-62	-2
- COc1ccccc1OCC(=O)NCCc1nc2ccccc2[nH]1
  5	16	3491	-4.9	-1	-25	-6
- Cc1cccc2cc(CN(Cc3ccc(F)cc3)C(=O)N3CCOCC3)c(=O)[nH]c12
  2	0	10613	4.0	0	-12	4
- O=C(c1ccc(OC2CCN(Cc3cccc(OCCO)c3)CC2)cc1)N1CCCC1
  -1	1	5954	1.4	-3	-16	5
- Cc1ccc(C(CC(=O)N2CCCC2)c2ccccc2)c(O)c1C (stereo unspecified)
  /	/	3514	4.3	0	-19	0

Not a hit list; overall some 4.1% were active at least once.
